Source: PubChem
gsp ag = activates gsp, the McCune-Albright syndrome mutation; gsp mutant cells, cAMP HTRF, 30 min; control for the full effect not named in the record; AID 624287; 340,000 tested, 0.13% active; Potency, µM (top dose mostly 76.9 µM), without a hit: at the highest dose activation (cAMP increase), actives largely listed as activators; active = well fitted activation curve with a large enough effect; inconclusive = small, poorly fitted or top-dose-only effect, or another doubt; inactive = no such curve, though single readings can be large or run the other way; cell line not stated here;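 also: phosphodiesterase inhibitor Ro 20-1724 added with compounds to block cAMP breakdown; potency is read from the fitted curve at half-maximal effect; nearly all actives have a fitted effect of over 60% in size; about a fifth of the inactives were tested at one dose only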
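Cells in DMEM/10% FBS with G418 were pretreated with compounds in DMSO plus […] (300 uM stock) for 30 min at 37C. cAMP was measured by HTRF (cAMP-d2 plus anti-cAMP antibody-K) after 30 min at room temperature.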
TRPML1 agonist = activates the human TRPML1 channel; Q9GZU1; TRPML1-expressing cells, Ca2+ dye fluorescence, FDSS; host cell line not named in the record; reference of the full effect not given here; activation, % (concentration not given with the values); 410,000 tested, 0.12% active; AID 624414; in the data active = activation above about 50%; inconclusive = about 30% to 50%; inactive = below about 30%; also: 0% is about no effect; the text of the record puts the active cut at 80%
Target sequence (Q9GZU1 whole entry, looked up): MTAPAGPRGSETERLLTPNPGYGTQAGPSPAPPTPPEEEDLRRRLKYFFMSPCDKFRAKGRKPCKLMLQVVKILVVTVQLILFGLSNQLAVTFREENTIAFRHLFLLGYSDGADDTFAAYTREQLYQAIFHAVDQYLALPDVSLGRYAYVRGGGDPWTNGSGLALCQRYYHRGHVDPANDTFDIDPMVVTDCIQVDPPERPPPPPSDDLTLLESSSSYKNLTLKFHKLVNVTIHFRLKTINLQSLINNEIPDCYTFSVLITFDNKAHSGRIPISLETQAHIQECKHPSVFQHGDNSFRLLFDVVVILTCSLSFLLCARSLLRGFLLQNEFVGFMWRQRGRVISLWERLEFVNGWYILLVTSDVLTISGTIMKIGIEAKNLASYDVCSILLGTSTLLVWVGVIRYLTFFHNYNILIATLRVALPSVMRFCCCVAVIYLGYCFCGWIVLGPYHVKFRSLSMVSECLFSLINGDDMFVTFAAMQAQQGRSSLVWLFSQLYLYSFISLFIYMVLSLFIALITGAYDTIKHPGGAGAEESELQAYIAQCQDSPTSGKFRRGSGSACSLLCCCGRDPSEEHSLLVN
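Kinetic FDSS Ca2+ read in Tet-induced TRPML1-DL cells (ABD Ca8 dye plus quencher, 45-90 min RT loading): baseline, then compound, then 110 s agonist window; EC80 agonist 54-4 at 4uM final added afterwards for a 110 s antagonist window.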
gsp antagonist = antagonists of gsp mutant (McCune-Albright syndrome); gsp-mutant cells, cAMP HTRF, 30 min; control for the full effect not named in the record; Potency, µM (titrated, usually from 76.9 µM), without a hit: at the top dose activity change, negative = inhibition, usual class: inhibitors; 340,000 tested, 0.4% active; active = falling curve of any shape with a large fitted effect; inconclusive = falling curve, mostly with a smaller effect; inactive = flat or rising curve; cell line not stated here;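 also: intracellular cAMP measured with PDE inhibitor Ro 20-1724 present during compound exposure; potency is read from the fitted curve at half-maximal effect; % is scaled to controls: 0 for no effect and ±100 for the full control effect; nearly all actives have a fitted effect of over 65% in size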
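Measurement of cellular cAMP by homogeneous time-resolved fluorescence following a 30 min compound exposure at 37C. The PDE inhibitor […] was present throughout; the assay buffer was DPBS with 0.05% BSA and 0.005% Tween 20.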
ClpP mod = qHTS Assay for Activators of ClpP. purified B. subtilis ClpP, FRET peptide cleavage, 20 min. Potency, µM (series often up to 57.5 µM), for inactives: at the top dose activity change, negative = active. 340,000 tested, 1.9% active; active = well fitted falling curve with a large enough effect; inconclusive = small, poorly fitted or top-dose-only effect; inactive = no such curve, though single readings can be large or run the other way; also: potency is read from the fitted curve at half-maximal effect; the source files actives as falling curves though it sought activators and does not explain the sign; nearly all actives have a fitted effect of over 65% in size; many hits overshoot -100%
Target sequence (P80244 whole entry, looked up): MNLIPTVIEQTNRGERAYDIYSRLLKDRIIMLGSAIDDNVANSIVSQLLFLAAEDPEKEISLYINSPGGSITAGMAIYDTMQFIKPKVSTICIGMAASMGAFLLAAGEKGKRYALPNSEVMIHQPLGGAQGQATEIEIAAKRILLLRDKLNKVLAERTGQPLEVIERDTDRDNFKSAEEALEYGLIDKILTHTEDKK
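FRET quenching reversal measured ClpP activation: 10 microg/mL B. subtilis ClpP at pH 8 with the FRET-FV decapeptide, read at 430 nm after 320 nm excitation. The 20-min minus 0-min signal was scaled between DMSO/no-enzyme wells and ADEP (5.8 microM final).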
Menin MLL FP FL = inhibitors of human menin-MLL interaction, wild-type MLL peptide | Fluorescence polarization, fluorescein-MLL peptide displacement from menin | FP activity change, % at 61.4 µM | 290,000 tested, under 10 active | AID 1766; inconclusive = falling polarisation curve, or a change in total fluorescence; inactive = total fluorescence flat and polarisation flat or rising; no compound was filed as active; the % refers to the polarisation; negative = inhibition;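 also: % of control where 0% means no effect; inhibitors lower the polarisation; unlabelled MLL peptide was the positive control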
TRPML1 blocker = blocks the human TRPML1 channel. Q9GZU1. TRPML1-inducible cells, Ca2+ dye fluorescence, FDSS; stronger effect = lower value; inhibition of EC80 agonist-evoked calcium signal. activity change, negative = inhibition, % (test concentration not listed). 390,000 tested, 0.02% active. AID 624415; in the data active means activity change below about -50%; inconclusive means about -30% to -50%; inactive means above about -30%;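 also: stimulus is agonist 54-4 at its EC80 concentration; % is scaled to controls: 0 for no effect and ±100 for the full control effect; compound concentration not given in the record; the text of the record puts the active cut at -80%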
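Tet-induced TRPML1-DL cells loaded with Ca8 no-wash calcium dye were read kinetically on FDSS. Compound addition was followed by EC80 agonist 54-4 (4 uM final); inhibition was read over 110 s.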
* hit, by the source's call; & = joins results of further samples; [ ] = remark or other dose.

Screening COCCN(C(=O)COC(=O)C(c1ccccc1)c1ccccc1)c1c(N)n(Cc2ccccc2)c(=O)[nH]c1=O returned gsp ag -10%, TRPML1 agonist -0.5, gsp antagonist 2%, ClpP mod -0.5% and TRPML1 blocker -5.
`Cc1ccc(NC(=O)CCc2c(C)nc3cc(-c4ccccc4)nn3c2C)cc1F` gave TRPML1 agonist -0.4, ClpP mod 28µM* and TRPML1 blocker 14.
Screening CC(C)(C)c1ccc(-c2nnc(SC3CCOC3=O)n2Cc2ccccc2)cc1 (stereo not drawn) returned gsp ag 14%, TRPML1 agonist 1.9, gsp antagonist -12%, ClpP mod -7.4%, Menin MLL FP FL 0.8 and TRPML1 blocker 9.
Screening COc1cc(-c2noc(C)c2C(=O)NCCCn2ccnc2)cc(OC)c1OC returned TRPML1 agonist 0.3, gsp antagonist 12%, ClpP mod -6.7% and TRPML1 blocker 15.
`O=C(NCc1ccco1)c1ccc2c(c1)C(=O)c1ccccc1-2` gave gsp ag 1%, TRPML1 agonist 1.3, gsp antagonist 1%, ClpP mod 0.9%, Menin MLL FP FL 3.9 and TRPML1 blocker 4.
CCOC(=O)c1ccc(NC(=O)CSc2ccc(-c3ccncc3)nn2)cc1 was read as gsp ag -19%, TRPML1 agonist -0.6, gsp antagonist -6%, Menin MLL FP FL -3.4 and TRPML1 blocker 33.
COc1cc(/C=C/C(=O)NC(C)C)ccc1OCc1ccccc1 was read as gsp ag 1%[15.4 µM], TRPML1 agonist 2.9, gsp antagonist -17%, Menin MLL FP FL 11 and TRPML1 blocker -13.
CC1CN(S(=O)(=O)c2ccc(C(=O)Nc3nnc(-c4ccc5c(c4)CCCC5)o3)cc2)CC(C)O1 (stereo not drawn) was read as gsp ag 10%, TRPML1 agonist -0.3, gsp antagonist -6%, ClpP mod -9.6%, Menin MLL FP FL 1.0 and TRPML1 blocker 11.
Screening O=[N+]([O-])c1cc(S(=O)(=O)N2CCCCCC2)ccc1Cl returned gsp ag -6%[15.4 µM], TRPML1 agonist 1.5, gsp antagonist -9%, Menin MLL FP FL -0.2 and TRPML1 blocker 16.
`CC(=O)c1ccccc1OCCn1nnc(-c2ccc(C)cc2)n1` gave gsp ag -25%, TRPML1 agonist 1.7, gsp antagonist inconclusive, ClpP mod -5.1%, Menin MLL FP FL -1.2 and TRPML1 blocker 6.
O=C(CCCn1c(=O)c2cccn2c2ccccc21)Nc1cccc(Cl)c1 was read as TRPML1 agonist 1.8, ClpP mod -0.8% and TRPML1 blocker 39.
For CC(=O)N1CCN(c2csc3ccc(Br)cc3c2=O)CC1 the results were TRPML1 agonist -0.2, ClpP mod inconclusive and TRPML1 blocker -1.
For CCOC(=O)c1c(C)nc2sc3c(=O)[nH]cnc3c2c1-c1ccc(OC)cc1 the results were gsp ag -19%, TRPML1 agonist 1.9, gsp antagonist 30%, ClpP mod -5.2%, Menin MLL FP FL -0.8 and TRPML1 blocker 47.
Screening N=C1/C(=C\c2ccc(OC(=O)c3ccc(F)cc3)cc2)C(=O)N=C2SC(N3CCCC3)=NN12 returned gsp ag -55%[inhibitor], TRPML1 agonist 0.1, gsp antagonist -10%, ClpP mod 1.1%, Menin MLL FP FL -1.8 and TRPML1 blocker 0.
For COc1cc(/C=C2\SC(=O)N(c3ccc(Cl)cc3)C2=O)cc([N+](=O)[O-])c1O the results were gsp ag 14%[15.4 µM], TRPML1 agonist -0.8, gsp antagonist inconclusive, Menin MLL FP FL 0.9 and TRPML1 blocker 3.
For Cc1csc(NC(=O)c2cnc3ccccc3n2)n1 the results were gsp ag 18%, TRPML1 agonist 0.5, gsp antagonist -13%, Menin MLL FP FL 3.7 and TRPML1 blocker 12.
Screening Clc1ccccc1CNc1ncnc2nc[nH]c12 returned gsp ag 8%, TRPML1 agonist -0.7&-1.0&-0.6, gsp antagonist 4%, ClpP mod 0.9%&-1.5%&-0.3%, Menin MLL FP FL 1.4 and TRPML1 blocker -9.
Screening C=C[C@@H]1c2cc(C)ccc2N(S(=O)(=O)c2ccc(C)cc2)[C@H](c2ccccc2)C1(C#N)S(=O)(=O)c1ccccc1 (stereo partly drawn) returned gsp ag -3%, TRPML1 agonist -0.2&1.5, gsp antagonist -4%, ClpP mod -0.1%&1.0% and TRPML1 blocker -6.
For CN(C(=O)/C=C/c1cnc2ccccc2c1)C1CCCCC1 the results were gsp ag inconclusive, TRPML1 agonist 0.7, gsp antagonist -8%, Menin MLL FP FL 6.6 and TRPML1 blocker 10.
`CN1OC[C@@H]2CN(Cc3ccccc3)[C@H](c3cccc(Oc4ccccc4)c3)C[C@@H]21` gave TRPML1 agonist 0.7, gsp antagonist -16%, ClpP mod 0.6% and TRPML1 blocker 69.
For CC1CCN(C(=O)CCc2nnc(-c3ccccc3)o2)CC1 the results were gsp ag 2%[15.4 µM], TRPML1 agonist -0.1, gsp antagonist 5%, Menin MLL FP FL -1.3 and TRPML1 blocker -18.
`Cc1ccnc(NC(=O)c2ccc3c(c2)C(=O)N(CC2CCCO2)C3=O)c1` (stereo not drawn) gave gsp ag 37%, TRPML1 agonist 0.2, gsp antagonist 1%, ClpP mod -2.4%, Menin MLL FP FL -3.6 and TRPML1 blocker 27.
`COc1cc(OC)cc(-c2nc3nc(C)c(CCC(=O)Nc4cc(C)cc(C)c4)c(C)n3n2)c1` gave TRPML1 agonist -0.7, ClpP mod -5.2% and TRPML1 blocker 0.
For Cc1cc(=O)n2nc(N3CCCC3C(=O)Nc3ccccc3C)sc2n1 (stereo not drawn) the results were gsp ag 13µM*, TRPML1 agonist 0.5, gsp antagonist 4%, ClpP mod -1.4%, Menin MLL FP FL 6.8 and TRPML1 blocker -2.
`O=C(CSC1=NS(=O)(=O)c2cc(Cl)ccc2N1)c1ccc(Cl)cc1` gave gsp ag 17%[15.4 µM], TRPML1 agonist 1.2, gsp antagonist -11% and TRPML1 blocker -19.
Cc1nn(CC(=O)Nc2ccncc2)c(C)c1[N+](=O)[O-] was read as gsp ag -41%[inhibitor], TRPML1 agonist -0.7, gsp antagonist 3%, ClpP mod -0.3%, Menin MLL FP FL 4.0 and TRPML1 blocker 15.
For O=C(CCC1COc2ccccc2O1)Nc1ncccc1O (stereo not drawn) the results were gsp ag -38%[inhibitor], TRPML1 agonist -0.8, gsp antagonist 6%, ClpP mod -4.2%, Menin MLL FP FL -0.6 and TRPML1 blocker 5.
`COc1ccc(OC)c(C2C(C#N)=C(N)N(N(C)C)C3=C2C(=O)CCC3)c1` (stereo not drawn) gave gsp ag -4%, TRPML1 agonist 0.6, gsp antagonist -5%, Menin MLL FP FL -3.4 and TRPML1 blocker -8.
Cc1cccc(OCC(=O)O/N=C(\N)Cc2ccc([N+](=O)[O-])cc2)c1 was read as gsp ag 15%, TRPML1 agonist 1.6, gsp antagonist 6%, ClpP mod -6.7%, Menin MLL FP FL -0.2 and TRPML1 blocker 10.
For Cc1cc(C(=O)Nc2cccnc2)cs1 the results were gsp ag 3%, TRPML1 agonist 0.2, gsp antagonist 10%, ClpP mod -0.9%, Menin MLL FP FL 4.1 and TRPML1 blocker -8.
Cc1cccc(NC(=O)N2CCN(Cc3ccc4c(c3)OCO4)CC2)c1C was read as gsp ag -1%, TRPML1 agonist -0.1, gsp antagonist inconclusive, ClpP mod 0.8%, Menin MLL FP FL -2.1 and TRPML1 blocker -8.
For CCOC(=O)N1CC=C2C(C#N)=C(N)C(C#N)(C#N)[C@H](c3ccc(OCC)c(OCC)c3)[C@H]2C1 the results were gsp ag inconclusive, TRPML1 agonist 1.3, gsp antagonist 7%, ClpP mod -4.2%, Menin MLL FP FL 9.4 and TRPML1 blocker 5.
Screening S=c1nc[nH]c2c1ncn2C1CCCC1 returned gsp ag -5%, TRPML1 agonist 1.9, gsp antagonist 5%, ClpP mod -0.8%, Menin MLL FP FL inconclusive and TRPML1 blocker 2.
Screening CCOCC(=O)Nc1c(C(=O)OCC)oc2ccccc12 returned gsp ag 0%, TRPML1 agonist 1.3, gsp antagonist -4%, ClpP mod -26%, Menin MLL FP FL 0.2 and TRPML1 blocker -10.
Screening CCOC(=O)C1CCCN(C(=O)c2cc(S(=O)(=O)Nc3ccccc3OC)ccc2C)C1 (stereo not drawn) returned gsp ag -20%[15.4 µM], TRPML1 agonist 1.1, gsp antagonist -17%, Menin MLL FP FL -1.2 and TRPML1 blocker -29.
`COc1ccc2c(Cl)c(C(=O)NCCCn3ccnc3)sc2c1Cl` gave gsp ag inconclusive, TRPML1 agonist 0.9, gsp antagonist 8%, ClpP mod -17%, Menin MLL FP FL 3.2 and TRPML1 blocker -6.
For CC(C)(C)OC(=O)[C@H](Cc1ccccc1)NC(=O)c1nc[nH]c1C(=O)N1CCc2ccccc2C1 the results were gsp ag 11%, TRPML1 agonist 0.8, gsp antagonist 4%, ClpP mod -2.3%, Menin MLL FP FL 1.2 and TRPML1 blocker 18.
Screening Cn1c(SCC(=O)Nc2ccc3c(c2)OCO3)nnc1-c1cnccn1 returned gsp ag inconclusive, TRPML1 agonist -1.2, gsp antagonist 6%, ClpP mod -1.4%, Menin MLL FP FL 0.6 and TRPML1 blocker -2.
For Cc1cc(N(CCO)CCO)nc(-n2nc(C)cc2C)n1 the results were gsp ag -53%[inhibitor], TRPML1 agonist 0.6, gsp antagonist -1%, ClpP mod -2.2%, Menin MLL FP FL 2.0 and TRPML1 blocker -5.
O=C(O)Cc1cn(Cc2cccc(Cl)c2)c2ccccc12 was read as gsp ag 37%, TRPML1 agonist -0.4, gsp antagonist -2%, ClpP mod -2.1%, Menin MLL FP FL 0.4 and TRPML1 blocker -16.
CC1C(=O)C(C)C(c2ccc(O)cc2)NC1c1ccc(O)cc1 (stereo not drawn) was read as gsp ag -15%, TRPML1 agonist -0.6, gsp antagonist 8%, ClpP mod 1.3%, Menin MLL FP FL 1.0 and TRPML1 blocker 3.
For C#CCOCCOCCOCCNc1nc(N2CCN(C(=O)[C@H](CCC(=O)O)n3cc([C@@H](N)CCCCN)nn3)CC2)nc(N2CCN(C(=O)[C@H](CCCCN)n3cc([C@@H](N)CC(N)=O)nn3)CC2)n1 the results were gsp ag 2%, TRPML1 agonist -0.3, gsp antagonist 13%, ClpP mod 0.8% and TRPML1 blocker 4.
`CCc1cccc(NC(=O)Cn2c(=O)n(-c3ccccc3C)c(=O)c3c2c2cc(C)ccc2n3C)c1` gave TRPML1 agonist 0.6, ClpP mod 4.3% and TRPML1 blocker 0.
c1ccc(-c2nnc(-c3ccccn3)nc2NC2CCCCC2)cc1 was read as gsp ag -8%[15.4 µM], TRPML1 agonist 0.9, gsp antagonist -9%, ClpP mod -2.4%, Menin MLL FP FL 4.9 and TRPML1 blocker 12.
